# Bioassay records deposited in PubChem by National Center for Advancing Translational Sciences (NCATS).
# RE007 growth inh – less growth of the S. pombe RE007 Vpr strain; S. pombe RE007 Vpr strain, BacTiter-Glo ATP luminescence, 24 h; control for the full effect not named in the record; Potency, µM (titrated, usually from 92.2 µM), inactives show at the top dose activity change, negative = less growth; hit rate 0.21% among 360,000; AID 651644; active = well fitted falling curve with a large enough effect; inconclusive = small, poorly fitted or top-dose-only effect; inactive = no such curve, though single readings can be large or run the other way;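 also: % is scaled to controls: 0 for no effect and ±100 for the full control effect; nearly all actives have a fitted effect of over 50% in size; the assay follows cell death caused by Vpr and the record does not say whether a fall means rescue or toxicity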
#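 Fission yeast strain RE007, carrying one chromosomally integrated HIV-1 vpr copy, was seeded at OD 0.01 in PMG+AL medium with 23 nL pinned compound. After 24 h at 30 °C and 99% humidity, viability was read by BacTiter-Glo luminescence.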
# Lassa entry inh – inhibitors of Lassa virus binding or cell entry; Lassa virus pseudotype entry inhibition, cell reporter; control for the full effect not named in the record; Potency, µM (highest dose often 37.9 µM), inactives show top-dose activity change, negative = inhibition, hits mostly inhibitors; hit rate 1.2% among 300,000; AID 540256; active means well fitted inhibition curve with a large enough effect; inconclusive means small, poorly fitted or top-dose-only effect, or effect the other way; inactive means flat fitted curve, though single readings scatter; tested in HEK293 cells; also: % is scaled to controls: 0 for no effect and ±100 for the full control effect; nearly all actives have a fitted effect of over 50% in size; luciferase read-out
# Cruzain Triton – cruzain (T. cruzi) inhibition with detergent; P25779; purified cruzain, Z-FR-AMC fluorescence, 0.01% Triton; Potency, µM, for the others: max response, negative = inhibition, hits mostly inhibitors; hit rate 0.43% among 200,000; AID 1478;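 also: plate controls were neutral wells for no effect and buffer without enzyme for full effect; nearly all actives have a fitted effect of over 40% in size; top concentration of the series not given in the record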
# Target sequence (P25779 123-467 limits assumed): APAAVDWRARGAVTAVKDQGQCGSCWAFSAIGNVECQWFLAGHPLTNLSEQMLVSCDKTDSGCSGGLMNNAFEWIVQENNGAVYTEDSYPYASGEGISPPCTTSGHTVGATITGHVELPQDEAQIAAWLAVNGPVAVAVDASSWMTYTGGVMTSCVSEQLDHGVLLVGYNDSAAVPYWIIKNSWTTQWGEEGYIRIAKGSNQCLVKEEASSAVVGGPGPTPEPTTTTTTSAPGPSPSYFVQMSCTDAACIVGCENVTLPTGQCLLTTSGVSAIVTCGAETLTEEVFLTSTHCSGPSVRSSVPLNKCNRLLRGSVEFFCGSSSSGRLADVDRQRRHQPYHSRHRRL
#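 Detergent-containing run (0.01% Triton X-100) in acetate buffer pH 5.5 with 5 mM DTT: enzyme at 1.5 nM final, 15 min compound preincubation at room temperature, then 2 uM Z-FR-AMC substrate. Activity taken as 60 s fluorescence increase at 360/450 nm.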
# SARS PLP yeast – inhibitors of SARS-CoV papain-like protease in yeast; Potency, µM (highest dose often 32.9 µM), for inactives: at the top dose activity, positive = growth rescue; hit rate 0.19% among 330,000; S. cerevisiae expressing SARS-CoV PLpro, growth rescue; control for the full effect not named in the record; AID 485353; active means well fitted rising curve with a large enough effect; inconclusive means small, poorly fitted or top-dose-only effect; inactive means no such curve, though single readings can be large or run the other way; also: 0% is about no effect; nearly all actives have a fitted effect of over 55% in size; growth read by luminescence after 48 h
# Cruzain noTriton – inhibitors of Trypanosoma cruzi cruzain without detergent. hit rate 2.3% among 200,000. P25779. purified cruzain, Z-FR-AMC fluorescence, no detergent. AID 1476. Potency, µM, for the others: max response, negative = inhibition, actives largely listed as inhibitors;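 also: plate controls were enzyme without inhibitor for no effect and buffer without enzyme for full effect; nearly all actives have a fitted effect of over 40% in size; top concentration of the series not given in the record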
#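 Purified cruzain at 1.5 nM, pre-incubated 15 min with compound at room temperature in 100 mM sodium acetate pH 5.5, 5 mM DTT, 0.00005% Triton X-100. Reaction started with 2 uM Z-FR-AMC; AMC fluorescence increase over 60 s gives rate.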
# 2A StopGo – lowers the luciferase signal of an FMDV 2A StopGo reporter; human cells with a luciferase reporter of 2A StopGo recoding; control for the full effect not named in the record; Potency, µM (titrated, usually from 57.9 µM), for the others: top-dose signal change, negative = less light; hit rate 1.2% among 410,000; AID 1159524; active = well fitted falling curve with a large enough effect; inconclusive = small, poorly fitted or top-dose-only effect; inactive = no such curve, though single readings can be large or run the other way; tested in HEK293T cells; also: % is scaled to controls: 0 for no effect and ±100 for the full control effect; nearly all actives have a fitted effect of over 45% in size; luciferase light after 4 h
# Marburg entry inh – blocks Marburg virus binding to or entry into cells; Marburg virus pseudotyped entry inhibition, cell reporter; control for the full effect not named in the record; about a third of the inactives were read at about 46 µM; AID 540276; hit rate 1.8% among 300,000; Potency, µM (highest dose often 37.8 µM), for inactives: at the highest dose activity change, negative = inhibition, hits mostly inhibitors; active = well fitted inhibition curve with a large enough effect; inconclusive = small, poorly fitted or top-dose-only effect, or effect the other way; inactive = flat fitted curve, though single readings scatter; tested in HEK293 cells; about a fifth of its hits are not listed in these tables; also: % is scaled to controls: 0 for no effect and ±100 for the full control effect; luciferase read-out
# NS1 inh – blocks influenza NS1 protein function | hit rate 0.4% among 270,000 | Potency, µM (titrated, usually from 46.1 µM), for inactives: top-dose activity, positive = more growth | S. cerevisiae slowed by influenza A NS1, growth recovery by OD600; active means well fitted rising curve with a large enough effect; inconclusive means small, poorly fitted or top-dose-only effect; inactive means no such curve, though single readings can be large or run the other way; also: nearly all actives have a fitted effect of over 50% in size
#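 Recovery from NS1-induced slow growth read by OD600 in budding yeast switched to galactose assay medium (pH 6.0, -URA) at 1:100 dilution. Compound 23 nl per well; the matching strain lacking NS1 serves as control.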
# Numbers without * were called inactive; ? = inconclusive; . = no result given; & = joins results of further samples; [ ] = dose if it differs, or a comment. Unless noted, calls follow the shape of the dose curve; as a rule, active = well fitted curve in the direction sought with a large enough effect; inconclusive = small, poorly fitted or top-dose-only effect, or another doubt; inactive = no such curve, though single readings can be large; an effect the other way counts as inactive or inconclusive. Potency is read from the fitted curve at half-maximal effect.
SMILES,RE007 growth inh,Lassa entry inh,Cruzain Triton,SARS PLP yeast,Cruzain noTriton,2A StopGo,Marburg entry inh,NS1 inh
O=C(c1ccccc1)N(Cc1ccc2c(c1)OCO2)Cc1nc2ccccc2c(=O)[nH]1,-11.0%,-1.2%,3.4%,-1.1%,-12.7%,1.1%,-20.7%[46.1 µM],-3.3%
COc1ccccc1Oc1nc2c(c(=O)n(Cc3ccccc3F)c(=O)n2C)n1C,-1.7%,-8.9%,-21.6%,-5.3%,24.2%,0.0%,-1.2%[46.1 µM],-35.2%
O=C(NNC(=O)c1cccc2ccccc12)c1cccc(Br)c1,2.3%,-15.7%[46.1 µM],.,.,.,-7.9%,?,.
COc1cccc(/C(C)=N/NC(=O)c2ccc(N(C)C)cc2)c1,9.2%,?,-8.7%,-2.0%,-4.2%,27.7%,?,23.9%
O=[N+]([O-])c1ccccc1-c1nc(-c2ccc(Br)o2)no1,-28.2%,?,-5.3%,?,-15.9%,20.5%,?,-4.0%
CN1c2ccccc2N(C)C1c1ccc2c(c1)OCO2,-10.6%,?,-3.6%,2.0%,?,?,?,-0.8%
COc1ccccc1CNC(=O)COC(=O)Cc1c(F)cccc1Cl,-5.3%,19.3%,.,-2.1%,.,-2.4%,14.9%[46.1 µM],-6.5%
C=CCn1c(SCC(=O)NCC2CCCO2)nc2scc(-c3ccco3)c2c1=O (stereo not given),-21.8%,11.3%,-4.5%,?,?,-3.6%,4.2%&-12.0%,?
Cc1nc(NC(=O)CSc2nnc(-c3ccc4c(c3)OCO4)o2)c(Cl)cc1Cl,4.1%,8.6%,-3.5%,-14.3%,5.5%,11.2%,4.6%,17.7%
Oc1ccccc1C(=S)N1CCCCC1,-7.1%,?,-1.2%,3.0%,-5.0%,-24.8%,0.3%,-15.4%
O=C(CCCC(=O)OCC(F)(F)C(F)F)Nc1ccccc1F,3.8%,?,.,-0.2%,.,-3.7%,?,.
COC(=O)CSc1nc(Cc2ccccc2)nc2ccccc12,1.1%,-0.2%,.,-3.2%,.,-11.7%,-1.0%,-36.9%
CC1=CC(C)(C)NC(=S)N1CCO,49.9%,-1.5%[46.1 µM],.,.,.,7.4%,-1.4%[46.1 µM],.
CC(=O)c1cccc(NC(=O)[C@H](Cc2ccccc2)N2Cc3ccccc3C2=O)c1,.,-1.5%[46.1 µM],-3.6%,.,1.7%,23.8%,-1.6%[46.1 µM],.
COc1ccc(-n2cnc3cc(C(=O)NCCC4=CCCCC4)ccc32)cc1,.,?,-6.1%,.,27.9%,0.0%,.,.
COC(=O)c1ccccc1NC(=O)CSc1nc(C)c(Cl)c(C)c1C#N,.,-28.8%[46.1 µM],0.3%,.,-7.3%,-24.3%,.,.
CC(C)c1ccc(S(=O)(=O)c2cnc(SCC(=O)Nc3ccc4c(c3)OCCO4)[nH]c2=O)cc1,.,8.1%[46.1 µM],-23.8%,.,4.0%,-13.0%,?,.
Cn1c(=O)[nH]c2ncn(C)c2c1=O,10.6%[18.4 µM],12.2%,3.9%&3.3%,.,1.1%&0.6%,0.0%&0.8%&-11.3%,?,-2.7%
Cc1ccc(Nc2nc(COC(=O)C3CC3)cs2)cc1,?,-26.2%,.,-4.2%,.,6.4%,11.1%,-11.6%
CCCCc1ccc(NC(=O)Nc2c(C)n(C)n(-c3ccccc3)c2=O)cc1,-12.9%,.,.,-2.7%,.,-29.9%,.,2.3%
COc1cc([N+](=O)[O-])c(C(=O)N2CCOCC2)c([N+](=O)[O-])c1,-3.6%,-8.2%,-2.6%,12.0%,-2.5%,-4.6%,0.9%,1.1%
O=c1c2ccccc2nc(-c2ccccc2)n1CCCN1CCOCC1,-5.0%,?,1.6%,-1.6%,2.3%,30.7%[activator],11.0%,-9.8%
COC(=O)c1ccc(NC(=O)CS(=O)(=O)Cc2ccccc2)cc1,12.3%,1.2%,6.3%,4.0%,-3.1%,5.8%,3.2%,4.3%
CCC(=O)N1CCN(c2ccc(NC(=O)c3ccc4c(c3)OCCO4)cc2)CC1,6.2%,?,.,0.0%,.,-17.1%,11.7%[46.1 µM],.
O=C(c1ccc2ccccc2c1)C1CCCN(C(=O)CCn2cnnn2)C1 (stereo not given),-18.5%,26.4%[46.1 µM],.,1.1%,.,-13.1%,6.1%[46.1 µM],-3.6%
COc1ccccc1CNS(=O)(=O)c1cc2c3c(c1)C(C)C(=O)N3CCC2 (stereo not given),2.9%,.,.,14.2%,.,-5.3%,.,16.1%
O=c1cc(NCCO)c2ccccc2o1,-14.8%,-3.3%,1.3%,-4.5%,-20.8%,-12.5%,13.1%,?
COc1ccccc1CN1C[C@@H]2C[C@@H](c3ccccc3C)N3CCC[C@@]23C1=O,-24.1%,.,.,0.7%,.,15.3%,.,1.2%
CCOc1ccccc1NC(=O)c1c(NC(=O)CCC(=O)O)sc2c1CCCCC2,-1.4%,?,.,-1.0%,.,-20.8%,-23.6%[46.1 µM],5.7%
C=CCn1c(SCC(=O)NCc2ccccc2)nnc1-c1ccccc1O,-15.7%[3.69 µM],1.2%,3.3%,-2.1%,1.5%,-15.5%,0.2%,-4.7%
Cc1ccc(C)c(NC(=S)NCCN2CCOCC2)c1,-0.3%,-1.0%,.,.,.,-18.3%,-22.1%,.
CCCC(=O)Nc1ccccc1NC(=O)c1ccc(OCC)cc1,-7.8%,.,.,1.1%,.,-11.7%,.,-2.7%
Cc1ccc(NC(=O)C2(c3ccc([N+](=O)[O-])cc3)CCCC2)cc1,-11.0%,.,-10.3%,23.4%,-5.5%,10.2%,.,5.7%
Cc1cc(NNC(=O)c2cccc(C(F)(F)F)c2)nc2c1c(C)nn2C,-7.6%,.,.,0.4%,.,?,.,1.9%
O=C(CSCCSCC(=O)c1ccco1)c1ccco1,.,.,-1.8%,-2.1%,?,.,-0.4%,8.7%
CC(NC(=O)c1cc(S(=O)(=O)N2CCCC2)cn1C)c1ccccc1 (stereo not given),-15.7%,.,.,-3.2%,.,-2.5%,.,-4.5%
CCN(CC)S(=O)(=O)c1ccc(-c2nnc(SCC(=O)Nc3ccc(OC)cc3)o2)cc1,-2.2%,-10.9%,-2.0%,9.9%,4.8%,-19.0%,-11.0%,23.7%
CC(=O)NC(Cc1ccc(F)c(F)c1)C(=O)NC1CCN(c2c(Cc3ccccc3)c(C)nc3ncnn23)CC1 (stereo not given),-3.4%,-17.5%[46.1 µM],.,-0.2%,.,-9.6%,-1.4%[46.1 µM],1.0%
COc1cccc2cc(S(=O)(=O)c3ccc(F)c(C)c3)c(=O)oc12,.,-0.1%[46.1 µM],1.7%,.,-0.3%,-8.2%,4.2%[46.1 µM],.
CCCCC(=O)Nc1cc([N+](=O)[O-])ccc1F,3.5%,.,.,-0.8%,.,7.2%,.,-6.9%
CCCCCCOc1ccc(CN2CCN(CC)CC2)cc1,0.6%,?,-2.9%,-9.0%,-15.0%,-6.3%,?,-4.7%
CC(C)[C@H]1COCCS(=O)(=O)N1Cc1ccccc1-c1ccccc1,-0.3%,.,.,-19.0%,.,-28.8%,?,.
CC(NC(=O)Cc1ccc(Br)cc1)c1ccccc1 (stereo not given),11.4%,.,.,3.0%,.,12.6%,.,-2.0%
CCOc1ccccc1N1CCN(C(=O)c2cc3ccccc3cc2OC)CC1,4.8%,?,.,-1.6%,.,-8.8%,-22.1%,.
CCOC(=O)N1CCN(Cc2nc3c(c(=O)n(C)c(=O)n3C)n2CCC(C)C)CC1,9.4%,.,2.0%,5.9%,?,?,.,-0.8%
COc1cccc(C2CC(C(F)(F)F)n3ncc(C(=O)NCc4ccco4)c3N2)c1 (stereo not given),7.3%,-10.5%,-5.6%,-2.1%,14.4%,5.0%,-0.6%,-5.3%
Cc1cccc(C)c1NC(=O)c1cc2sccc2n1Cc1ccc(F)cc1,.,?,6.8%,.,?,0.0%,6.8%[46.1 µM],.
Cc1cc(C(F)F)n2nc(C(=O)Nc3sc4c(c3C(N)=O)CCC4)nc2n1,10.7%,-7.6%,-2.7%,?,?,23.6%,?,7.0%
O=C(COc1ccc(Cl)cc1)Nc1ncc([N+](=O)[O-])s1,4.7%,?,.,0.1%,.,-45.5%,?,.
NC(=O)c1ccc(OCC(F)(F)F)nc1,2.5%,.,.,0.2%,.,-8.7%,.,1.4%
O=C(CCS(=O)(=O)c1ccc(Br)s1)NCc1ccccc1,7.1%,8.9%,3.1%,4.1%,-1.7%,8.0%,-22.4%,0.0%
COc1ccc(OCCCC(=O)N2CCN(S(=O)(=O)c3cccc(F)c3)CC2)cc1,8.8%,?,.,4.7%,.,-29.9%,15.7%[46.1 µM],.
COc1ccc(NC(=O)c2cccs2)cc1O,0.9%,-15.3%,2.8%,-5.5%,11.3%,20.0%,21.2%,-82.6%
CCCCCOc1ccc(C2C(C(=O)c3ccc(C)o3)=C(O)C(=O)N2c2cc(C)on2)cc1 (stereo not given),0.7%,.,.,-1.3%,.,0.0%,.,7.7%
Cc1cnc(C(=O)Nc2nccs2)cn1,-13.1%,?,2.1%,2.8%,1.7%,46.7%[activator],20.5%,?
CC(C)(C)C1CCc2c(sc(NC(=O)CSc3ncn[nH]3)c2C#N)C1 (stereo not given),-27.4%,?,-18.9%,-11.6%,?,-19.9%,-25.7%,5.4%
C=CCN1CCN(C(c2ccc(OC)c(OC)c2)c2nnnn2C(C)(C)C)CC1 (stereo not given),44.4%,-7.3%,6.6%,2.8%,3.5%,-5.2%,26.6%,-0.4%
Oc1c(C(c2ccccn2)N2CCOCC2)ccc2cccnc12 (stereo not given),-22.0%,?,5.6%,-40.6%,2.4%,.,?,-53.3%
O=C(C1=C(O)C(=O)N(CCOCCO)C1c1ccccn1)c1cccs1 (stereo not given),9.7%,8.3%[46.1 µM],.,1.2%,.,-17.0%,-4.0%[46.1 µM],2.6%
COCCn1c(SCC(=O)c2ccc(C)cc2)nc2cc(C(=O)NC3CCCC3)ccc2c1=O,.,8.9%[46.1 µM],2.2%,.,5.2%,-13.0%,.,.
